Compound activity as filed in PubChem.
PINK1 modulator: A Quantitative High throughput Screen to Identify Chemical Modulators of PINK1 Expression; PINK1 immunofluorescence, high-content cytometry, 24 h; Potency, µM (series often up to 76.6 µM), for inactives: at the top dose activation (PINK1 increase), actives largely listed as activators; actives 0.2% (n = 410,000); active = well fitted activation curve with a large enough effect; inconclusive = small, poorly fitted or top-dose-only effect; inactive = flat fitted curve, though single readings scatter; cell line not stated here;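 further: potency means the concentration at half of the fitted maximal effect; % of control where 0% means no effect; nearly all actives have a fitted effect of over 65% in size; a mitochondrial uncoupler was the plate control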
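Stable cell line, 250 cells/well, 12 h attachment; compounds pinned at 5 concentrations, 24 h; CCCP control. Fixed with nuclear dye, primary antibodies 12 h at 10 degrees C, secondary plus cell stain; laser-scanning cytometer read.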
D2 ag: Beta-Arrestin HTS for Positive Allosteric Modulators of the Human D2 Dopamine Receptor: Agonists; D(2) dopamine receptor (Homo sapiens), P14416; DiscoveRx PathHunter D2 beta-arrestin, luminescence, 90 min; 100% = 57 uM dopamine signal; activation, % (no concentration beside the values); actives 0.084% (n = 360,000); in the data active = activation above about 40%; inconclusive = about 15% to 40%; inactive = below about 15%; further: compound concentration not given in the record; the text of the record calls up to 30% inactive
Target sequence (P14416 whole entry, looked up): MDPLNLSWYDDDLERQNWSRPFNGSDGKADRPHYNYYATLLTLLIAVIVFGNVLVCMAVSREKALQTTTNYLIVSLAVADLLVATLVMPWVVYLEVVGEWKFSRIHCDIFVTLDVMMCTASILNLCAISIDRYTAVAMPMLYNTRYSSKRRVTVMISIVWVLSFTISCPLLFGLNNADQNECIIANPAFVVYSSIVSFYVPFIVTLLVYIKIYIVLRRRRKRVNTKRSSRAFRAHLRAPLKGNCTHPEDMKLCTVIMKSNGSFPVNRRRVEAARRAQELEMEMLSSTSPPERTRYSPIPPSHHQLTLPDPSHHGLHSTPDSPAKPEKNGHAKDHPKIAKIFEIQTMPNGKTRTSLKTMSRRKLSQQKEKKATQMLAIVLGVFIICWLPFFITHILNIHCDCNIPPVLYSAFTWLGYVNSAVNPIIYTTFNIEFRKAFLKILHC
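DiscoveRx PathHunter D2 beta-arrestin cells (2,100/well) attached overnight, then compound-stimulated 90 min at 37 C in HBSS/10 mM HEPES/0.1% Tween-20 buffer; beta-galactosidase complementation read by luminescence after 1 h at ambient temperature. Dopamine 57 uM final (EC100) as control.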
Six1-Eya2 blk: qHTS Assay for Inhibitors of the Six1/Eya2 Interaction; actives 0.56% (n = 360,000); AID 651725, 2012; activity change, % (test concentration not listed); AlphaScreen GST-Six1/His-Eya2 binding, biochemical; hits give low values; control for the full effect not named in the record; Homeobox protein SIX1 (Homo sapiens) + Protein phosphatase EYA2 (Homo sapiens), …; in the data active = activity change below about -65%; inconclusive = about -30% to -65%; inactive = above about -30%; further: on the % scale 0 is the no-effect control and ±100 the full control effect; compound concentration not given in the record
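GST-Six1 + His-Eya2 (5X stock: 250/500 nM); Tris pH 8.0, 300 mM NaCl, 0.05% BSA, 0.02% Tween 20; GSH donor/Ni acceptor beads; 1 h 37 °C dark; AlphaScreen readout.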
CtBP-E1A inh: qHTS Assay for Inhibitors of the CtBP/E1A Interaction | AlphaScreen GST-E1A/His-CtBP binding, 1536-well; hits give low values; control for the full effect not named in the record | activity change, % (concentration not given with the values) | actives 0.49% (n = 340,000) | AID 651724, 2012; in the data active means activity change below about -65%; inconclusive means about -30% to -65%; inactive means above about -30%; further: on the % scale 0 is the no-effect control and ±100 the full control effect
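AlphaScreen with 125 nM GST-E1A and 125 nM His-CtBP (5X stocks) in Tris pH 8.0, 300 mM NaCl, BSA, Tween 20, TCEP. Compounds preincubated 2 h at 37 deg C, then glutathione donor/nickel acceptor beads added for 1 h at 37 deg C in dark.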
TRPML1 ag: qHTS for Agonists of the Human Mucolipin Transient Receptor Potential 1 (TRPML1). actives 0.12% (n = 410,000). activation, % (test concentration not listed). TRPML1-expressing cells, Ca2+ dye fluorescence, FDSS; host cell line not named in the record; reference of the full effect not given here. Mucolipin-1 (Homo sapiens), Q9GZU1; in the data active = activation above about 50%; inconclusive = about 30% to 50%; inactive = below about 30%; further: 0% is about no effect; the text of the record puts the active cut at 80%
Target sequence (Q9GZU1 whole entry, looked up): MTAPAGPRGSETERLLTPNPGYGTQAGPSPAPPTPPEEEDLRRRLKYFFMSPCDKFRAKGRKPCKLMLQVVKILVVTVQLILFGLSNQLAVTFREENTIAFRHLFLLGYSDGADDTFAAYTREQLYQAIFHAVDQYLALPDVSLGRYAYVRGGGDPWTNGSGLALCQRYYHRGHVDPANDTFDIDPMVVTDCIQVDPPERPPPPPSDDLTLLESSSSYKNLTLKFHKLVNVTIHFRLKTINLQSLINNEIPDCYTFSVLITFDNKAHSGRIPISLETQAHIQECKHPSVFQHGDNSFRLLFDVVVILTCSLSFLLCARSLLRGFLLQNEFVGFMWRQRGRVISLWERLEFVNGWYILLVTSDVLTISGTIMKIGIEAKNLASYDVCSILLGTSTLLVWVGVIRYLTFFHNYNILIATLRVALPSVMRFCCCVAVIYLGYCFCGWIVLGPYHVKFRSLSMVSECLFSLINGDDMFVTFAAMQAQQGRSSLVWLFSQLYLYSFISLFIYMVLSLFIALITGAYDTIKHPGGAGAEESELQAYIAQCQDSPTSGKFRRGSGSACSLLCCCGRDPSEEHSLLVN
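Tetracycline-induced TRPML1-DL cells are seeded and incubated overnight before loading with a no-wash Ca2+ dye and quencher. Agonist activity is taken from the 110 s fluorescence read following compound pin-transfer on an FDSS, before EC80 54-4 challenge.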
TRPML1 inh: qHTS for Inhibitors of the Human Mucolipin Transient Receptor Potential 1 (TRPML1); actives 0.02% (n = 390,000); activity change, negative = inhibition, % (test concentration not listed); Mucolipin-1 (Homo sapiens), Q9GZU1; TRPML1-inducible cells, Ca2+ dye fluorescence, FDSS; hits give low values; inhibition of EC80 agonist-evoked calcium signal; AID 624415, 2012; in the data active means activity change below about -50%; inconclusive means about -30% to -50%; inactive means above about -30%;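 further: stimulus is agonist 54-4 at its EC80 concentration; on the % scale 0 is the no-effect control and ±100 the full control effect; compound concentration not given in the record; the text of the record puts the active cut at -80%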
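Tet-induced TRPML1-DL cells loaded with Ca8 no-wash calcium dye were read kinetically on FDSS. Compound addition was followed by EC80 agonist 54-4 (4 uM final); inhibition was read over 110 s.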
* = called active by the depositor; ? = inconclusive; . = not tested or not shown; [ ] = dose if it differs, or a comment.

SMILES	PINK1 modulator	D2 ag	Six1-Eya2 blk	CtBP-E1A inh	TRPML1 ag	TRPML1 inh
O=C(Nc1ccccc1-c1ccccc1)c1ccccc1	0.8%	4.6	-1.6	.	2.0	25.1
Cc1cc([N+](=O)[O-])nn1CCC(=O)NC1CCCCCC1	-0.5%	-3.1	-0.5	2.7	0.3	-6.5
CCn1cc(/C=C(\NC(=O)c2ccccc2)C(=O)NCCCN2CCOCC2)c2ccccc21	1.6%	-5.9	-0.7	-0.7	-0.2	-1.4
CN(C)S(=O)(=O)c1cccc(COC(=O)c2ccc(Cl)cc2O)c1	-0.3%	-2.5	7.6	22.5	.	.
N#C/C(=C\c1c(F)cccc1Cl)S(=O)(=O)c1ccccn1	0.0%	-6.6	4.0	-10.1	0.7	22.7
O=c1cc(N2CCC3(CC2)OCCO3)[nH]c(=O)n1-c1ccc(Br)cc1	2.7%[38.3 µM]	-2.2	-1.3	2.2	-0.2	12.2
COc1ccccc1NC(=S)NC(=O)c1ccc(-c2ccc(Cl)cc2)o1	?	-0.6	-2.3	3.0	-0.2	?
Cc1ccc(NC(=O)Cn2nc(C)c3nn(-c4ccc(Cl)cc4)c(C)c3c2=O)cc1F	0.3%	.	.	.	0.1	-11.6
CCOC(=O)c1c(C)nsc1NC(=O)c1ccco1	1.2%	3.3	0.1	5.4	-0.7	2.6
CC[C@@H](NS(=O)(=O)c1ccc(C)cc1)C(=O)Oc1ccc2c3c(c(=O)oc2c1)CCC3	0.1%	-1.1	-14.2	-10.5	0.8	0.8
CCn1c(C)c(C)c2cc(C(=O)NCCc3ccc(C)cc3)ccc21	-0.8%	.	.	.	2.8	11.3
COc1cc(NC(=O)C2CC(=O)NC3=C2C(=O)CCC3)cc(OC)c1 (centres undefined)	-5.3%[38.3 µM]	-0.5	-2.4	1.0	-0.7	3.6
CNC(=O)Cn1nc(-c2ccc(C)c(S(=O)(=O)N(C)C)c2)c2ccccc2c1=O	1.2%	-1.7	2.7	1.2	0.2	6.2
CCCOc1ccc(C(=O)C(c2ccccc2)N2CCOCC2)cc1 (centres undefined)	-0.1%	-2.8	-0.6	6.9	0.8	10.4
COc1cc(OC)c(-c2cc(C(=O)NCc3ccc(F)cc3)c3c(-c4ccccc4)[nH]nc3n2)cc1OC	17.0%	.	.	.	-0.9	-15.8
CCc1ccc(NC(=O)N(Cc2c[nH]c3ccccc23)C2CCCCCC2)cc1	0.7%	.	.	.	1.7	10.0
Cc1ccc2cc(CN(Cc3ccco3)C(=O)c3ccco3)c3nnnn3c2c1	1.7%	-0.9	-22.6	-4.9	3.8	-10.0
CCN1C(=O)c2cccc3c(NC(=O)c4ccc(S(=O)(=O)N(C)C)cc4)ccc1c23	3.6%	0.1	-8.7	-7.3	-1.0	-1.8
CCOC(=O)[C@@H]1[C@H]2COc3ccccc3[C@@H]2N2C(=O)N(c3ccc(C)cc3)C(=O)[C@]12C	0.0%	0.2	-2.8	.	0.5	-13.3
CC(=O)NC1CCC(C(=O)O)(c2ccccc2)C1 (centres undefined)	0.3%	-2.3	-1.2	2.8	0.0	3.8
Cn1nccc1C(=O)NCCN1C(=O)OC(C)(C)C1(C)O (centres undefined)	-1.0%[38.3 µM]	-3.6	4.0	4.7	-0.2	7.4
CCCCN1CC(=O)N2[C@H]3c4cc(Cl)ccc4OC[C@@H]3[C@H](C(=O)OCC)[C@]2(C)C1=O	-0.2%	2.7	6.7	-23.4	-0.6	0.4
O=C(CN1C(=O)NC2(CCCCCC2)C1=O)c1cccs1	2.9%	-2.7	-0.5	-1.5	0.1	12.9
CCCCn1c(N)c(N(CCC(C)C)C(=O)c2ccccc2-n2cnnn2)c(=O)[nH]c1=O	3.9%	0.2	12.3	1.2	-0.1	8.4
CC1(c2ccc(Cl)cc2)NC(=O)N(CC(=O)Nc2ccc(F)cc2)C1=O (centres undefined)	2.0%	-0.9	2.4	1.6	5.6	14.9
More entries:
SMILES	PINK1 modulator	D2 ag	Six1-Eya2 blk	CtBP-E1A inh	TRPML1 ag	TRPML1 inh
CCCOc1ccc(CNC(=O)c2ccc(C)c(-n3c(C)nc4cccnc43)c2)cc1	-0.4%	.	.	.	2.2	10.1
COc1ccc(OC)c(S(=O)(=O)N2C(C)CCCC2C)c1 (centres undefined)	0.5%	-1.7	2.2	-2.6	4.3	32.3
CCc1ccc(NC(=O)c2cc3c(C)nc4ccccc4c3o2)cc1	2.3%	1.2	?	?	0.4	1.5
Cc1ccc(CSc2nncn2-c2ccccn2)cc1	-0.5%	-0.3	-0.8	-0.8	2.1	-6.9
O=C(O)C(c1ccccc1)N1C(=O)/C(=C\c2ccc(O)c(O)c2)SC1=S (centres undefined)	1.3%	-3.4	-28.0	.	16.2	15.2
COc1ccc2c(C#N)c3ccccn3c2c1	-0.1%	7.5	37.2	.	2.8	1.7
COc1ccc(-c2sc(C(=O)c3ccc(Cl)cc3Cl)cc2CC(=O)O)cc1	5.6%	-1.9	0.8	7.3	-1.2	17.0
CCC(CO)NCCNC(CC)CO (centres undefined)	1.2%	-6.6	2.0	-9.5	-0.7	14.3
Cc1cc(C)c2cccc(NC(=S)NC(=O)c3ccccc3)c2n1	18.2%[38.3 µM]	-3.7	-16.7	-7.8	1.5	23.5
COc1ccc(NC(C)=O)cc1S(=O)(=O)N1CCN(C/C=C/c2ccccc2)CC1	-0.6%	-5.0	-6.1	.	-0.1	10.3
O=c1ccc(Br)c[nH]1	-0.6%	-1.3	6.5	2.7	-0.2	-4.9
COc1cc(C(CC(=O)Nc2ccc(Br)cn2)N2Cc3ccccc3C2=O)cc(OC)c1OC (centres undefined)	-4.7%	.	.	.	2.0	19.2
N#CC1(CCCN2CCCCC2)c2ccccc2CCc2ccccc21	4.7%	-3.1	-5.1	.	0.1	-7.0
Cc1ccsc1/C=N/NC(=O)C(O)c1ccccc1 (centres undefined)	1.1%	-4.8	-2.3	8.2	0.9	-0.9
CC(O)CNc1nc2c(c(=O)n(C)c(=O)n2C)n1Cc1cccc(Br)c1 (centres undefined)	.	-1.5	-9.0	-9.6	0.5	1.9
CC(=O)Nc1c(O)n(C)c2ccccc12	?	-0.5	0.2	0.0	0.2	16.6
CCC1CCCCN1S(=O)(=O)c1ccc(NC(=O)c2ccncc2)cc1 (centres undefined)	-2.0%	2.0	-4.0	-2.2	0.6	-7.7
CCC(COC(=O)Nc1ccccc1)NC(=O)OC(C)C (centres undefined)	2.1%	-3.8	2.3	7.2	-0.5	-2.9
CC1(C)CC(C)(c2ccc(O)cc2O)N(c2cccc(Cl)c2)C(=S)N1 (centres undefined)	2.6%	-7.8	-23.6	-27.6	-0.4	6.9
COc1ccc(OC)c(/C=C2\N=C(c3ccccc3)OC2=O)c1	5.1%	-4.8	5.1	2.8	2.3	1.6
Cc1ccccc1NC(=S)N(Cc1ccco1)C(C)c1ccccn1 (centres undefined)	0.6%	-2.1	0.1	-0.3	0.6	-0.2
COc1ccc(-c2noc(CSc3nc4sc(C)c(C)c4c(=O)n3-c3ccccc3)n2)cc1OC	.	-3.7	3.8	8.5	0.8	-7.7
CC(C)(C)C(=O)Cn1c(=N)n(Cc2ccccc2)c2ccccc21	5.5%	-2.2	-12.4	-14.4	4.5	27.7
CCOC(=O)[C@]12CCCC=C1N(Cc1ccc(Cl)cc1Cl)C(=O)[C@H](CC(=O)NCCCN1CCCC1=O)C2	0.5%	.	5.7	-0.2	-0.3	.
O=C(NCCCN1CCCC1)c1ccc2c(c1)N(Cc1ccccc1F)C(=O)c1ccccc1S2(=O)=O	0.1%	4.6	-1.6	-2.3	-0.7	-4.2

Given with each value named: two of the compounds above.
Cc1ccc(CSc2nncn2-c2ccccn2)cc1
  PINK1 modulator = -0.5%	D2 ag = -0.3	Six1-Eya2 blk = -0.8	CtBP-E1A inh = -0.8	TRPML1 ag = 2.1	TRPML1 inh = -6.9

O=C(O)C(c1ccccc1)N1C(=O)/C(=C\c2ccc(O)c(O)c2)SC1=S (centres undefined)
  PINK1 modulator = 1.3%	D2 ag = -3.4	Six1-Eya2 blk = -28.0	CtBP-E1A inh = .	TRPML1 ag = 16.2	TRPML1 inh = 15.2

Remaining list, next part.
SMILES	PINK1 modulator	D2 ag	Six1-Eya2 blk	CtBP-E1A inh	TRPML1 ag	TRPML1 inh
NS(=O)(=O)c1ccc(Oc2ccc(S(N)(=O)=O)cc2)cc1	1.0%	-1.5	7.0	3.0	-0.8	-9.3
CSCC[C@H](NC(=O)OC(C)(C)C)C(=O)N1CCC(C(=O)N[C@@H](C)C(=O)O)CC1	-0.8%[38.3 µM]	-1.9	4.2	8.0	0.8	26.8
CCc1ccc(N(CC(=O)N2CCCCCC2)S(C)(=O)=O)cc1	1.3%	1.2	5.7	6.7	-0.2	2.1
O=C(CC1CCC1)NC(c1ccccc1)c1ccccc1	1.4%	0.0	5.0	6.5	-0.9	7.6
CCOC(=O)C(NC(=O)CC)C(O)c1cccc([N+](=O)[O-])c1 (centres undefined)	.	-1.5	0.3	12.8	-0.2	0.7
CCOc1ccc(NC(=S)NC(=O)c2ccco2)cc1	3.0%	-2.4	8.5	.	-0.2	-11.1
Cc1c(CC(=O)N2CCN(C(=O)C3COc4ccccc4O3)CC2)c(=O)oc2cc(O)cc(O)c12 (centres undefined)	7.3%	10.1	-15.7	?	-0.5	0.4
Cc1cc(C)cc(-n2ncc3c2CCCC3NC(=O)c2cc(C)oc2C)c1 (centres undefined)	4.5%	-2.7	-3.6	-5.5	2.1	2.9
O=C(NCCOc1cccc(Cl)c1Cl)c1cc(-n2cnnc2)ccc1Cl	-3.6%[38.3 µM]	-2.5	7.7	7.3	-0.1	-26.7
COC(=O)c1ccc(CNC(=O)COC(=O)COc2ccc(OC)cc2)cc1	-0.9%	-4.2	-2.4	6.3	-0.6	14.0
O=C(NCc1ccc2c(c1)OCO2)c1c[nH]c2ccc(S(=O)(=O)N3CCOCC3)cc2c1=O	?	-0.8	-14.6	3.4	1.9	1.5

3 compounds already listed, sorted by their value in TRPML1 inh, lowest first:
Structure | TRPML1 inh
Cc1c(CC(=O)N2CCN(C(=O)C3COc4ccccc4O3)CC2)c(=O)oc2cc(O)cc(O)c12 (centres undefined) | 0.4
O=C(CC1CCC1)NC(c1ccccc1)c1ccccc1 | 7.6
COC(=O)c1ccc(CNC(=O)COC(=O)COc2ccc(OC)cc2)cc1 | 14.0

Another view of two compounds above.
smiles,PINK1 modulator,D2 ag,Six1-Eya2 blk,CtBP-E1A inh,TRPML1 ag,TRPML1 inh
COc1cc(OC)c(-c2cc(C(=O)NCc3ccc(F)cc3)c3c(-c4ccccc4)[nH]nc3n2)cc1OC,17.0%,.,.,.,-0.9,-15.8
CCc1ccc(NC(=O)N(Cc2c[nH]c3ccccc23)C2CCCCCC2)cc1,0.7%,.,.,.,1.7,10.0
